p53 mut binder – binds human mutant p53 on microarray; small molecule microarray binding, anti-GST fluorescence; calls only; actives 0.4% (n = 17,000);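 active = compounds whose four printed spots each glow above background more than chance allows, each with a p-value under 7%; compounds were printed on slides so no solution concentration is given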;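 also: about 2 pmol printed per array spot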
c-Myc SMM – c-Myc (human) binding | calls only | small molecule microarray, His-c-Myc binding, anti-His fluorescence | AID 624141 | P01106 | actives 1.5% (n = 17,000);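 active = spot fluorescence over background with P-value below 7% in all four replicate spots, showing protein binding; compounds were printed on slides so no solution concentration is given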;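 also: score is binary with 100 for all four spots passing and 0 otherwise; about 2 pmol printed per array spot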
STAT3 binder – binds human STAT3 on microarray; calls only; P40763; actives 0.2% (n = 17,000); Small molecule microarray, His-STAT3 binding, anti-His fluorescence;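 active = compounds whose four printed spots each show fluorescence over background unusually high for their array block, chance value under 7%; compounds were printed on slides so no solution concentration is given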;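 also: about 2 pmol printed per array spot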
Target sequence (P40763 whole entry, looked up): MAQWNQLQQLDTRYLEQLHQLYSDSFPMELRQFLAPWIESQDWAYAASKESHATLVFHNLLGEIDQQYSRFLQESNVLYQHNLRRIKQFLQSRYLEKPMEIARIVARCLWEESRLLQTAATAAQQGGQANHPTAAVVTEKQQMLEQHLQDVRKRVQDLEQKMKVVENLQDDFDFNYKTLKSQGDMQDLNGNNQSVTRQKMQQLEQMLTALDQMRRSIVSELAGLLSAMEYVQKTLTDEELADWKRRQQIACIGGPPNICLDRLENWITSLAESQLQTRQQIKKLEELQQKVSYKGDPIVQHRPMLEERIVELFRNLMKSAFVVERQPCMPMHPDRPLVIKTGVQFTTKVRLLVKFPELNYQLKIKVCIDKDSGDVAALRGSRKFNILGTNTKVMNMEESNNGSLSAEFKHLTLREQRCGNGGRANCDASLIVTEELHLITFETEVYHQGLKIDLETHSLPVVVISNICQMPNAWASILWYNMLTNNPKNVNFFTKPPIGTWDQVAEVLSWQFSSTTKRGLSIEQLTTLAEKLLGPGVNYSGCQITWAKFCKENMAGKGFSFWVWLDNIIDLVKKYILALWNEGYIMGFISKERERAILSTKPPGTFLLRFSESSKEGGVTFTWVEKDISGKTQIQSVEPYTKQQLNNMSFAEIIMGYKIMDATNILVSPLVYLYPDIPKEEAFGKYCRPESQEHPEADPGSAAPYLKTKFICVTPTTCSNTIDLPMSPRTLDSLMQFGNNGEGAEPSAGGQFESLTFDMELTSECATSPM
ID4 binder – ID4 (human) binding. P47928. small molecule microarray, Flag-ID4 binding, fluorescence F/B. calls only. actives 1.2% (n = 31,000);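 active = spot signal over background at p below 0.07 in all four prints; compounds were printed on slides so no solution concentration is given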;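 also: a binder raises fluorescence above local background on the spot; about 2 pmol printed per array spot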
Target sequence (P47928 whole entry, looked up): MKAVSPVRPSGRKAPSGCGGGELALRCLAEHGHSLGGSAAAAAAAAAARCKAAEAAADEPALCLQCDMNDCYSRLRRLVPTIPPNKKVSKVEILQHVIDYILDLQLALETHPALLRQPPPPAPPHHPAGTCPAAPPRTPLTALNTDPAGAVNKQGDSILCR
Calls only; i = inactive; nt = not tested or not shown; + = active, no number.

SMILES | p53 mut binder | c-Myc SMM | STAT3 binder | ID4 binder
COc1c(O)ccc2c1C(=O)c1c(O)cc(C)cc1C2[C@@H]1O[C@H](CO)[C@@H](O)[C@H](O)[C@H]1O (stereo partly drawn) | i | i | i | nt
COC(=O)N(C)C[C@H]1OCc2cnnn2CCCC(=O)N([C@@H](C)CO)C[C@@H]1C | i | i | i | i
CCOC(=O)c1c(NC(=O)C23CCC(C)(C(=O)O2)C3(C)C)sc2c1CCCC2 (stereo not drawn) | i | i | i | i
CCc1c(C)[nH]n(-c2ccc(Oc3ccccc3)c(S(=O)(=O)O)c2)c1=O | i | i | i | i
CNC[C@H]1OCCCC[C@H](C)Oc2ccc(NC(=O)CCCN(C)C)cc2C(=O)N([C@@H](C)CO)C[C@@H]1C | i | i | i | i
C[C@H]1CN([C@@H](C)CO)C(=O)c2cccc(NC(=O)Nc3ccc(C(F)(F)F)cc3)c2O[C@H]1CN(C)Cc1ccc(C(=O)O)cc1 | i | i | i | i
COc1ccc(/C=C/C(=O)O[C@@H]2[C@@H](OC(C)=O)[C@@H](OC(C)=O)[C@H](O[C@H]3[C@@H]4C=CO[C@@H](O[C@@H]5O[C@H](CO)[C@@H](O)[C@H](O)[C@H]5O)[C@@H]4[C@@]4(CO)O[C@@H]34)O[C@H]2C)cc1 | i | i | i | i
COc1ccc(S(=O)(=O)N(C)C[C@@H]2Oc3ccc(NC(=O)Cc4ccccc4)cc3C(=O)N([C@H](C)CO)C[C@@H]2C)cc1 | i | i | i | i
Cc1cccc(OCCn2c(S(=O)(=O)O)nc3ccccc32)c1 | i | i | i | i
COc1cc(Br)c(S(=O)(=O)NCCOc2ccc(C(C)(C)C)cc2)cc1OC | i | i | i | i
C#Cc1ccc(OC)c(OC)c1 | i | i | i | nt
C[C@H]1CN([C@@H](C)CO)C(=O)c2cc(NC(=O)NC3CCCCC3)ccc2O[C@@H]1CN(C)S(=O)(=O)c1cccs1 | i | i | i | i
COc1ccc(NC(=O)Nc2ccc3c(c2)C(=O)N([C@@H](C)CO)C[C@@H](C)[C@H](CN(C)C(=O)Nc2ccc(F)cc2)OCCCC[C@@H](C)O3)cc1 | i | i | i | nt
C[C@H]1CN([C@@H](C)CO)C(=O)c2cc(NC(=O)C3CC3)ccc2O[C@H]1CN(C)S(=O)(=O)c1cn(C)cn1 | i | i | i | i
Cc1noc(C)c1NC(=O)N(C)C[C@H]1Oc2ccc(NC(=O)CCN3CCOCC3)cc2CC(=O)N([C@@H](C)CO)C[C@@H]1C | i | i | i | i
C[C@@H]1CN([C@H](C)CO)C(=O)Cc2cc(NS(=O)(=O)c3ccc(Cl)cc3)ccc2O[C@H]1CN(C)C(=O)Nc1ccc(F)cc1 | i | i | i | i
Cc1noc(C)c1NC(=O)N(C)C[C@H]1Oc2c(NC(=O)NC3CCCCC3)cccc2C(=O)N([C@@H](C)CO)C[C@H]1C | i | i | i | i
O=c1ccc2ccccc2o1 | i | i | i | i
C[C@H](CO)N1C[C@H](C)[C@H](CN(C)C(=O)c2ccncc2)OCCCC[C@H](C)Oc2ccc(NS(=O)(=O)c3ccccc3)cc2C1=O | i | i | i | i
C[C@@H]1CN([C@H](C)CO)C(=O)c2cc(N(C)C)ccc2O[C@@H](C)CCCCO[C@@H]1CN(C)S(=O)(=O)c1cccs1 | i | i | i | i

Copied from above, four compounds:
SMILES | p53 mut binder | c-Myc SMM | STAT3 binder | ID4 binder
Cc1noc(C)c1NC(=O)N(C)C[C@H]1Oc2c(NC(=O)NC3CCCCC3)cccc2C(=O)N([C@@H](C)CO)C[C@H]1C | i | i | i | i
O=c1ccc2ccccc2o1 | i | i | i | i
C[C@H](CO)N1C[C@H](C)[C@H](CN(C)C(=O)c2ccncc2)OCCCC[C@H](C)Oc2ccc(NS(=O)(=O)c3ccccc3)cc2C1=O | i | i | i | i
C[C@@H]1CN([C@H](C)CO)C(=O)c2cc(N(C)C)ccc2O[C@@H](C)CCCCO[C@@H]1CN(C)S(=O)(=O)c1cccs1 | i | i | i | i

Ordered by SMILES length (low to high): some entries from above.
SMILES | p53 mut binder | c-Myc SMM | STAT3 binder | ID4 binder
C#Cc1ccc(OC)c(OC)c1 | i | i | i | nt
CCOC(=O)c1c(NC(=O)C23CCC(C)(C(=O)O2)C3(C)C)sc2c1CCCC2 (stereo not drawn) | i | i | i | i
C[C@H]1CN([C@@H](C)CO)C(=O)c2cc(NC(=O)C3CC3)ccc2O[C@H]1CN(C)S(=O)(=O)c1cn(C)cn1 | i | i | i | i
C[C@@H]1CN([C@H](C)CO)C(=O)Cc2cc(NS(=O)(=O)c3ccc(Cl)cc3)ccc2O[C@H]1CN(C)C(=O)Nc1ccc(F)cc1 | i | i | i | i
C[C@H]1CN([C@@H](C)CO)C(=O)c2cccc(NC(=O)Nc3ccc(C(F)(F)F)cc3)c2O[C@H]1CN(C)Cc1ccc(C(=O)O)cc1 | i | i | i | i

Further structures follow:
SMILES | p53 mut binder | c-Myc SMM | STAT3 binder | ID4 binder
CN1CCN(C(=O)C2=C[C@H](C3CCCCC3)C[C@H](OCc3ccc(CO)cc3)O2)CC1 | i | i | i | nt
COc1ccc(NC(=O)c2cccnc2C(=O)O)c(OC)c1 | i | i | i | i
Cc1cccc(C)c1NC(=O)CSc1nnnn1-c1c(C)cccc1C | i | i | i | i
Cc1noc(C)c1NC(=O)N(C)C[C@H]1Oc2ccc(NS(=O)(=O)c3cn(C)cn3)cc2CC(=O)N([C@@H](C)CO)C[C@H]1C | i | i | i | i
CC(C)ON([C@@H](C(=O)NO)C(C)C)S(=O)(=O)c1ccc(-c2ccccc2)cc1 | i | i | i | i
C[C@@H]1CN([C@@H](C)CO)C(=O)c2cccc(NC(=O)c3ccncc3)c2O[C@@H]1CN(C)C(=O)NC1CCCCC1 | i | i | i | i
O=c1c(O[C@@H]2O[C@H](CO)[C@H](O)[C@H](O)[C@H]2O)c(-c2ccc(O)cc2)oc2cc(O)cc(O)c12 | i | i | i | i
C[C@H]1CN([C@@H](C)CO)C(=O)c2cc(NC(=O)CCC(F)(F)F)ccc2O[C@@H]1CN(C)S(=O)(=O)c1cccs1 | i | i | i | nt
COc1ccc(S(=O)(=O)Nc2cccc3c2O[C@@H](CN(C)S(=O)(=O)c2cn(C)cn2)[C@H](C)CN([C@@H](C)CO)C3=O)cc1 | i | i | i | i
C[C@@H]1CN([C@@H](C)CO)C(=O)Cc2cc(NC(=O)C3CC3)ccc2O[C@H]1CN(C)C(=O)Nc1cccc2ccccc12 | i | i | i | i
CCn1c(SCC(=O)Nc2ccc(C(N)=O)cc2)nnc1-c1ccc(F)cc1 | i | i | i | +
COc1ccc(C#Cc2cnc3c(c2)C(=O)N([C@H](C)CO)C[C@H](C)[C@H](CN(C)C(=O)NC2CCCCC2)O3)cc1OC | i | i | i | i
O=C(NCCSc1nc2cc(C(F)(F)F)ccc2s1)C12CC3CC(CC(C3)C1)C2 | i | i | i | i
C[C@H](CO)N1C[C@H](C)[C@H](CN(C)C(=O)Nc2ccc(F)cc2)Oc2ccc(NS(C)(=O)=O)cc2C1=O | i | i | i | i
CC(C)NC(=O)Nc1ccc2c(c1)CC(=O)N([C@H](C)CO)C[C@H](C)[C@H](CN(C)CC1CCCCC1)O2 | i | i | i | nt
C[C@H](CO)N1C[C@H](C)[C@@H](CN(C)C(=O)Nc2ccnc(N3CCOCC3)c2)OCc2cn(nn2)CCCC1=O | i | i | i | i
Nc1ccc(S(=O)(=O)NC(=O)c2ccccc2)cc1 | i | i | i | i
Cc1noc(C)c1S(=O)(=O)Nc1ccc2c(c1)CC(=O)N([C@@H](C)CO)C[C@@H](C)[C@H](CN(C)C(=O)Nc1ccc(C(F)(F)F)cc1)O2 | i | i | i | i
C[C@@H]1CCCCO[C@@H](CN(C)Cc2ccncc2)[C@@H](C)CN([C@H](C)CO)C(=O)c2cc(NC(=O)Nc3ccccc3)ccc2O1 | i | i | i | i
CCN1C(=O)C(O)(CC(=O)c2ccco2)c2cc(Br)ccc21 (stereo not drawn) | i | i | i | i
C[C@@H]1CN([C@H](C)CO)C(=O)Cc2cc(NC(=O)NC3CCCCC3)ccc2O[C@H]1CN(C)C(=O)Nc1ccccc1 | i | i | i | i
COc1ccc(S(=O)(=O)Nc2ccc3c(c2)C(=O)N([C@@H](C)CO)C[C@@H](C)[C@@H](CN(C)Cc2ccccc2)OCCCC[C@H](C)O3)cc1 | i | i | i | nt
C[C@@H]1CN([C@@H](C)CO)C(=O)c2cc(NS(=O)(=O)c3cccs3)ccc2O[C@H]1CN(C)C(=O)Nc1ccc(F)cc1 | i | i | i | i
COc1cc2c(cc1C(F)(F)F)N(C(=O)Nc1cc(F)cc(-c3cccnc3)c1)CC2 | i | i | i | i
CC(=O)c1cccc(NC(=O)CSc2nc3ccccc3c(=O)n2-c2ccccc2)c1 | i | i | i | i
C[C@@H]1CN([C@@H](C)CO)C(=O)c2cccc(NS(=O)(=O)c3cn(C)cn3)c2O[C@H]1CN(C)Cc1ccc(Cl)c(Cl)c1 | i | i | i | i
C[C@@H]1CCCCO[C@@H](CN(C)C(=O)c2ccncc2)[C@@H](C)CN([C@@H](C)CO)C(=O)c2cc(NS(=O)(=O)c3cccs3)ccc2O1 | i | i | i | i
CC1=CCC(C(C)(C)O[C@@H]2O[C@H](CO[C@@H]3O[C@H](COC(=O)c4cc(O)c(O)c(O)c4)[C@@H](O)[C@H](O)[C@H]3O)[C@@H](O)[C@H](O)[C@H]2O)CC1 (stereo partly drawn) | i | i | i | i
COc1ccc(S(=O)(=O)N(C)CC(=O)O)cc1OC | i | i | i | i
C[C@@H]1CN([C@H](C)CO)C(=O)c2cccc(NC(=O)Nc3ccc(F)cc3)c2O[C@@H]1CN(C)Cc1ccc2c(c1)OCO2 | i | i | i | nt
C[C@H](CO)N1C[C@H](C)[C@@H](CN(C)S(=O)(=O)c2cccs2)Oc2ccc(NC(=O)CCN3CCOCC3)cc2CC1=O | i | i | i | i
CNC[C@H]1Oc2ccc(NC(=O)Nc3ccc(C(F)(F)F)cc3)cc2C(=O)N([C@@H](C)CO)C[C@@H]1C | i | i | i | nt
COC(=O)[C@@]1(Cc2ccccc2CN=[N+]=[N-])COC(c2ccc(OCCCO)cc2)=N1 | i | i | i | i
C[C@H](CO)N1C[C@H](C)[C@H](CN(C)C(=O)CCCN(C)C)OCCCC[C@H](C)Oc2ccc(NC(=O)Nc3ccccc3)cc2C1=O | i | i | i | i
CC1CC(OC(=O)c2ccccc2O)CC(C)(C)C1 (stereo not drawn) | i | i | i | i
CNC[C@H]1OCCCC[C@@H](C)Oc2ccc(NC(=O)c3ccncc3)cc2C(=O)N([C@H](C)CO)C[C@H]1C | i | i | i | i
C[C@H](CO)N1C[C@H](C)[C@H](CN(C)C(=O)Nc2ccc(F)cc2)Oc2ccc(NC(=O)C3CC3)cc2C1=O | i | i | i | i
C[C@@H]1CCCCO[C@@H](CN(C)C(=O)CCCN(C)C)[C@@H](C)CN([C@H](C)CO)C(=O)c2cc(NC(=O)Cc3ccccc3)ccc2O1 | i | i | i | i
C[C@H](CO)N1C[C@H](C)[C@@H](CN(C)Cc2ccc3c(c2)OCO3)Oc2ccc(NC(=O)c3ccncc3)cc2CC1=O | i | i | i | nt
COc1ccc(S(=O)(=O)N(C)C[C@@H]2Oc3ccc(NS(=O)(=O)c4cn(C)cn4)cc3C(=O)N([C@H](C)CO)C[C@H]2C)cc1 | i | i | i | i
CNC[C@@H]1OCc2cn(nn2)CCCC(=O)N([C@@H](C)CO)C[C@@H]1C | i | i | i | i
C[C@@H]1CN([C@H](C)CO)C(=O)c2cc(NC(=O)Nc3ccccc3)ccc2O[C@@H](C)CCCCO[C@H]1CN(C)Cc1ccncc1 | i | i | i | i
C[C@@H]1CCCCO[C@H](CN(C)Cc2ccncc2)[C@H](C)CN([C@H](C)CO)C(=O)c2cc(NS(=O)(=O)c3cn(C)cn3)ccc2O1 | i | i | i | nt
C[C@@H]1CCCCO[C@H](CN(C)C(=O)Nc2ccccc2)[C@H](C)CN([C@@H](C)CO)C(=O)c2cc(NC(=O)c3ccccc3)ccc2O1 | i | i | i | i
C[C@H](CO)N1C[C@H](C)[C@@H](CN(C)C(=O)Nc2ccccc2)Oc2ccc(NC(=O)C3CC3)cc2CC1=O | i | i | i | i
C[C@H]1CN([C@@H](C)CO)C(=O)CCCn2nncc2CO[C@@H]1CN(C)S(=O)(=O)c1ccc(-n2cccn2)cc1 | i | i | i | nt
O=C(NCCNc1ccc(C(F)(F)F)cc1[N+](=O)[O-])c1ccc(F)cc1 | i | i | i | i
C[C@@H]1CN([C@H](C)CO)C(=O)c2cc(NC(=O)c3ccncc3)ccc2O[C@H]1CN(C)C | i | i | i | i
C=C1CC[C@H]2[C@@](C)(CCC[C@@]2(C)C(=O)O)[C@@H]1CCC(C)CCO (stereo partly drawn) | i | i | i | i
Cc1noc(C)c1NC(=O)Nc1ccc2c(c1)CC(=O)N([C@H](C)CO)C[C@@H](C)[C@H](CN(C)S(=O)(=O)c1cccs1)O2 | i | i | i | i
Cc1ccc(S(=O)(=O)Nc2ccc3c(c2)C(=O)N([C@H](C)CO)C[C@H](C)[C@@H](CN(C)S(C)(=O)=O)OCCCC[C@H](C)O3)cc1 | i | i | i | nt
Cc1noc(C)c1S(=O)(=O)Nc1ccc2c(c1)CC(=O)N([C@H](C)CO)C[C@H](C)[C@H](CN(C)C)O2 | i | i | i | i
C[C@H]1CN([C@@H](C)CO)C(=O)Cc2cc(NC(=O)Cc3ccccc3)ccc2O[C@H]1CN(C)C(=O)Nc1ccccc1 | i | i | i | +

The list is partial; rates above refer to the full screens.
